NPR1 antag: blocks ANP-stimulated signaling of human Npr1 receptor; Potency, µM (doses to about 46.3 µM), for inactives: at the highest dose activity change, negative = inhibition, actives largely listed as inhibitors; 76,000 compounds, 1.6% hits; HEK293 hNpr1 GloSensor cGMP, ANP-stimulated luminescence; P16066; active = well fitted inhibition curve with a large enough effect; inconclusive = small, poorly fitted or top-dose-only effect; inactive = no such curve, though single readings can be large or run the other way;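 also: nearly all actives have a fitted effect of over 60% in size; nearly all hits also lower the signal before the agonist is added; a reference antagonist and vehicle were the controls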
Target sequence (P16066 whole entry, looked up): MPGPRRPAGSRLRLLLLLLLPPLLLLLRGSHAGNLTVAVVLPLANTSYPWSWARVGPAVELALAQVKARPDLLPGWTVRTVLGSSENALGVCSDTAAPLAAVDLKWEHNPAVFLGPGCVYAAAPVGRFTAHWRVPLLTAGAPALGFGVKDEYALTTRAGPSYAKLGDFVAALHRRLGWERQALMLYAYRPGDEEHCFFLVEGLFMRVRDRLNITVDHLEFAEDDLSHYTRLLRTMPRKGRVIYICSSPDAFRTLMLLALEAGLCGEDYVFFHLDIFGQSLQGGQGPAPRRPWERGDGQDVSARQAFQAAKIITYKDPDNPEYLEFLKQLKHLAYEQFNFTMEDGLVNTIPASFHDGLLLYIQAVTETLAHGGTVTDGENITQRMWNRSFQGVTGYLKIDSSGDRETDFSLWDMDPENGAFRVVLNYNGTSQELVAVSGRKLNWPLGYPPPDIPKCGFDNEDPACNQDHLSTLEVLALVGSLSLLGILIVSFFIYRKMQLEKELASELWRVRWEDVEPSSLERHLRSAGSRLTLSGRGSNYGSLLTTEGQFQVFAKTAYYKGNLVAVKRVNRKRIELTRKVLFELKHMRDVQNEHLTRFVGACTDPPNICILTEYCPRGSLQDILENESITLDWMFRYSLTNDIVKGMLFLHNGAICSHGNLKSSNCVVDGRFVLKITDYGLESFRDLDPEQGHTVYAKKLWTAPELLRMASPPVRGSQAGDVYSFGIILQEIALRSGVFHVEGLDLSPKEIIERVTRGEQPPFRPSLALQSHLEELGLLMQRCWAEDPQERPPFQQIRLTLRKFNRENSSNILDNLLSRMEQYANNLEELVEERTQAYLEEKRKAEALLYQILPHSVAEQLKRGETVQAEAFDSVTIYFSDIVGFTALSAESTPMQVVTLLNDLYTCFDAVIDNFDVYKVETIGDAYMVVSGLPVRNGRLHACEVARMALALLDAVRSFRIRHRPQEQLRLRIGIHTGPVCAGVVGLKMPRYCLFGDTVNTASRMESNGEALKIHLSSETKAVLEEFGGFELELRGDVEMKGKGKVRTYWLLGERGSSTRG
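HEK293 cells stably expressing human Npr1 and cGMP GloSensor pGS-40F, loaded 2 h with 2% GloSensor reagent, given compound 30 min at room temperature. Luminescence read before and 20 min after 0.1 nM hNppA.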
Numbers without * were called inactive; ? = inconclusive; [ ] = another dose, or the depositor's remark. % is scaled to controls: 0 for no effect and ±100 for the full control effect; potency is read from the fitted curve at half-maximal effect.

| Molecule | NPR1 antag |
| --- | --- |
| c1ccc(-n2cc(CN3CCC(N4CCSCC4)CC3)nn2)cc1 | 2% |
| CC(C)(CC(=O)O)CC(=O)N1CCN2C(=O)N(CCc3cccs3)C(=O)[C@H]2C1 | 0%[70.6 µM] |
| COCCN(C)C[C@@H]1CN(C(=O)c2ccc(Cl)s2)C[C@@H]1CO | -2% |
| CN(C)[C@H]1CN(C(=O)c2cccc(NCc3ccc(F)cc3)c2)C[C@@H]1O | 7% |
| O=C(NCc1ccco1)N1CCc2n[nH]c(=O)n2CC1 | 5% |
| COc1ccc(S(=O)(=O)NC2CCc3n[nH]c(=O)n3CC2)cc1Cl (configuration not stated) | 2% |
| CC(=O)N1CCC(N[C@@H]2C[C@H](Cn3cc(C4CC4)nn3)[C@@H](O)[C@H]2O)CC1 | 4% |
| COc1cccc(CN2Cc3nc(Nc4cccc(F)c4)ccc3OCC2=O)c1 | -14%[70.6 µM] |
| CN(Cc1ccccc1)C(=O)C[C@@H]1O[C@H](CNC(=O)Nc2cccc(F)c2)[C@@H](O)[C@H]1O | 5%[70.6 µM] |
| Cc1ccc(C2Cn3nnc(C(=O)N4CCC(C(=O)NC5CCCCCC5)CC4)c3CO2)cc1 (configuration not stated) | -12% |
| O=C(Cn1nc2c(cc1=O)CCCCC2)NCC1CCOCC1 | 1% |
| FC(F)(F)c1ccc2nc([C@H]3CCN(Cc4ccc(Cl)cc4)C3)[nH]c2c1 | ? |
| COc1ccc(C(=O)N[C@@H]2CN(C3CCOCC3)C[C@H]2CN(C)C)c(C)c1 | 1% |
| CN(C)c1ccc(CN2CCC3(CC2)C(C(=O)O)CC(=O)N3C)cn1 (configuration not stated) | 0% |
| COCCNC(=O)C1COC2(CCC(C)CC2)N1C(=O)c1cccc([N+](=O)[O-])c1 (configuration not stated) | -1% |

| Molecule | NPR1 antag |
| --- | --- |
| c1ccc(-c2cnc(Nc3ccc(N4CCOCC4)cc3)c3c2CCO3)nc1 | -5%[70.6 µM] |
| COC(=O)N1CCn2c(nnc2-c2ccc(OC)cc2)C1 | 2%[70.6 µM] |
| Cc1n[nH]c(C)c1C(N)C(=O)NCCN1CCCC1 (configuration not stated) | -2% |
| Cc1[nH]ncc1CNC(=O)CCc1ccc2c(c1)CN(C(=O)NC(C)C)CCO2 | 5% |
| Cc1ocnc1C(=O)N1CCC2(CC1)c1nc[nH]c1CCN2S(C)(=O)=O | 1% |
| OCCCn1cnc(-c2ccccc2)c1COCc1ccccc1 | 5% |
| O=C(c1ccc(Cl)cc1)N1CCCC(n2cc(-c3nc(-c4ccccc4)no3)nn2)C1 (configuration not stated) | ? |
| CCN(C1CCOCC1)C1CN(C(=O)c2ccsc2)C1 | -4% |
| CC(C)NC(=O)N(C)CC1CCOCC1 | -2% |
| COc1ccccc1CN1CCNc2cnc(-c3ccccc3)cc2C1 | -15%[70.6 µM] |
| COCC(=O)N[C@@H]1CN(Cc2ccccc2OC(C)C)C[C@H]1CO | 2% |
| COc1cccc(S(=O)(=O)N2CC(F)(F)C[C@H]2c2nnc(C)o2)c1 | -10% |
| Cc1cnc(CCNC(=O)c2cnccn2)n1CC1CC1 | 0% |
| CC(C)NC(=O)C[C@@H]1C[C@H]2O[C@H](CNC3CCOCC3)[C@@H](O)[C@H]2O1 | -1%[70.6 µM] |
| Cc1cc(S(=O)(=O)N[C@@H]2CN(C)C[C@H]2CN(C)C)ccc1Cl | -1% |

Brought forward from above: four compounds; new compounds follow.
| Molecule | NPR1 antag |
| --- | --- |
| COc1cccc(S(=O)(=O)N2CC(F)(F)C[C@H]2c2nnc(C)o2)c1 | -10% |
| Cc1cnc(CCNC(=O)c2cnccn2)n1CC1CC1 | 0% |
| CC(C)NC(=O)C[C@@H]1C[C@H]2O[C@H](CNC3CCOCC3)[C@@H](O)[C@H]2O1 | -1%[70.6 µM] |
| Cc1cc(S(=O)(=O)N[C@@H]2CN(C)C[C@H]2CN(C)C)ccc1Cl | -1% |
| Cc1ccc2cccc(OCCNC(=O)C3NCCc4[nH]cnc43)c2n1 (configuration not stated) | 0% |
| O=C(NC1CCN(c2cc(C(F)(F)F)ncn2)CC1)c1cccs1 | -12% |
| Cc1ccc(C2Cn3nnc(C(=O)N4CCC(C(=O)Nc5cc(F)cc(F)c5)CC4)c3CO2)cc1 (configuration not stated) | -13% |
| CCc1cnc(C)nc1N1CCC(Oc2ccc3ccccc3c2)(C(=O)O)CC1 | 0% |
| CCCCN1C(=O)[C@@H]2C[C@@H](O)CN2C2(CN(C3CCN(C)CC3)C2)C1=O | -1%[70.6 µM] |
| O=C(CCc1ccccc1)N1CCC(Cc2nncn2-c2ccccc2)C1 (configuration not stated) | -8% |
| CCC(C(=O)N1CCC2(CC1)C(=O)N(CC(=O)NCC(C)C)CN2c1ccccc1)c1ccccc1 (configuration not stated) | -10% |
| CC(=O)N(C)Cc1cccc(C(F)(F)F)c1 | 0%[70.6 µM] |
| O=C1CC2(CCN(Cc3ccc(F)cc3)CC2)Oc2cc(Cl)ccc21 | -19%[70.6 µM] |
| COC(=O)[C@@H](Cc1cccnc1)NC(=O)[C@H]1CN(C(C)=O)CCN1C(C)=O | 7%[70.6 µM] |
| Cc1ccc(C(=O)N2CCC3(CC2)CC(N(Cc2ccccc2)C2CC2)CCO3)cn1 (configuration not stated) | 10% |
| COc1cccc(CNC(=O)N2CC(c3noc(-c4ccncc4)n3)C2)c1 | -13% |
| Fc1ccccc1-c1n[nH]c2c1CN(Cc1cccn1-c1nccs1)CC2 | -11% |
| COCC1CN(C(C)=O)CC12CCN(C(=O)CC1=CCCCC1)CC2 (configuration not stated) | 2% |
| c1ccc(-c2noc(-c3cncnc3Nc3ccc4c(c3)OCO4)n2)cc1 | 1% |

| Molecule | NPR1 antag |
| --- | --- |
| O=C([C@@H]1C[C@H](Oc2cccnc2)CN1S(=O)(=O)c1ccccc1)N1CCOCC1 | 1% |
| CNC(=O)N1CCc2nc(N3CCN(C)CC3)sc2C1 | -1% |
| CC(=O)N1CCN([C@H]2[C@@H]3OC[C@@H](O3)[C@@H](NCc3ccco3)[C@@H]2O)CC1 | -1%[70.6 µM] |
| O=C(c1cccc2[nH]ccc12)N1CCC2(CC1)CN(c1ncccn1)CC2CO (configuration not stated) | 0% |
| Cc1cc(C)cc(-n2ncc3c2CCCC3NC(=O)CCn2nnnc2C)c1 (configuration not stated) | 6% |
| Cc1onc(C(=O)NCC(=O)N2CCCCCNC(=O)CC2c2ccccc2)c1Cn1cccn1 (configuration not stated) | 0% |
| COc1ccc(C2Cn3nnc(-c4nc(C5CC5)no4)c3CO2)cc1 (configuration not stated) | ? |
| CCn1cnnc1CC1CCN(C(=O)c2nccc3ccccc23)C1 (configuration not stated) | -1% |
| CN(Cc1ccc(-c2ccccc2)cc1)CC1CC1 | 2%[70.6 µM] |
| O=C(NC[C@H]1O[C@@H](CO)[C@@H](O)[C@H]1N1CCOCC1)Nc1ccc(OC(F)(F)F)cc1 | 6% |
| Cc1ccccc1C(=O)NCCn1cccc1-c1nc(-c2ccc3c(c2)OCO3)no1 | -21% |
| CC(C)c1noc(-c2cn(C3CCN(C(=O)c4ccc(N(C)C)cc4)C3)nn2)n1 (configuration not stated) | ? |
| COc1nccc(N2CCC(CC(=O)NCCCN3CCC(C)CC3)CC2)n1 | 2% |
| O=C(NCC1CCCO1)c1noc(-c2ccccc2F)n1 (configuration not stated) | -5% |
| Cc1cc(C)c(CNC(=O)c2cc(-c3ccnn3C)cc3c2OCCN3C)c(=O)[nH]1 | 5%[70.6 µM] |

| Molecule | NPR1 antag |
| --- | --- |
| O=C(c1ccoc1)N1CCC(Cc2nc(C3CCOCC3)no2)CC1 | -15% |
| COc1ccc(C(C(=O)O)N2CCC(C(=O)N3CCCC3)CC2)c(OC)c1 (configuration not stated) | 3% |
| CCn1ncc(NC(=O)Cn2ncc3cc(-c4cccc(C#N)c4)ccc32)n1 | ? |
| O=C(Nc1ccc(-c2nnc3n2CCCC3)cc1)c1ccc[nH]c1=O | -2% |
| Cc1cn(CC(=O)NC(c2nnc3n2CCNCC3)C(C)C)c(=O)[nH]c1=O (configuration not stated) | 2% |
| CN(Cc1ccccc1)C(=O)C[C@@H]1c2nc(NC(=O)c3ccc(F)cc3)sc2C[C@@H]2[C@](C)(CO)[C@H](O)CC[C@]21C | -10% |
| CCOc1ccc(C(=O)NC2CCN(c3cc(-c4ccccc4)[nH]n3)CC2)cc1 | -18% |
| COc1cccc(CN2CCN(C(=O)c3cnc4ccccn4c3=O)CC2=O)c1 | 4% |
| CCNc1cc(N2CCC(CCC(=O)O)CC2)ncn1 | 0% |
| O=C(NCC1CCCCC1)N[C@H](C1CCNCC1)C1CC(O)C1 (some centres not stated) | -7% |
| COc1ccc(OC)c(CNC(=O)Cc2cccn2-c2ccc(C)cc2)c1 | -3% |
| CCOc1ccccc1CN1CCN(c2ncnc3[nH]ccc23)CC1CCO (configuration not stated) | 4% |
| O=C(c1ccc(C(F)(F)F)cc1)N1CCC(c2n[nH]c(=O)n2-c2ccccc2)CC1 | 7% |
| Cc1ccc(NC(=O)Cn2c(N3CCN(c4ccccc4)CC3)nc(C)cc2=O)c(Cl)c1 | 2% |
| CC1=C[C@@H](CNCc2ccncc2)[C@H](C(C)C)C[C@H]1Cc1nnc(-c2ccc([N+](=O)[O-])cc2)o1 | -6% |

| Molecule | NPR1 antag |
| --- | --- |
| O=C(NC[C@H]1OC[C@@H](NC2CCC(F)(F)CC2)[C@@H]1O)C1CC1 | 0%[70.6 µM] |
| CC(C)n1cc2cc(C(=O)NCc3cccnc3)sc2c1 | -2% |
| Cn1nccc1C(=O)NCCc1noc(C2CC2)n1 | 1% |
| COc1ccc(CC(=O)Nc2ccc3c(c2)CN(CCOc2ccccc2)C(=O)C(C)O3)cc1 (configuration not stated) | -17% |
| O=C(c1ccnnc1)N1CC(F)(F)C[C@H]1c1nc(C2CC2)no1 | 1% |
| COCc1nc(C2CCCN(C(=O)Nc3cccc(F)c3C)C2)no1 (configuration not stated) | -1% |
| CCCS(=O)(=O)N1CCC(Cc2nc(-c3cccnc3)n[nH]2)C1 (configuration not stated) | -1% |
| CNC(=O)[C@@H]1C[C@@H](n2cc(CNC(=O)Nc3ccc(Cl)cc3C)nn2)CN1 | 1% |
| O=C1NC[C@@H](CCC(=O)N2CCC(O)CC2)N2C[C@@H](NCc3ccccc3)C[C@@H]12 | 9%[70.6 µM] |
| COc1ccc2ccc(OCc3nc(C(=O)N(C)Cc4cc(C)no4)co3)cc2c1 | ? |
| O[C@@H]1C[C@@H](c2nc(-c3ccc4c(c3)OCO4)no2)N(Cc2cc3ccccc3o2)C1 | 3%[70.6 µM] |
| Cc1ccc(S(=O)(=O)N2C[C@@H](F)C[C@H]2C(=O)N2CCc3ccccc3C2)c(C)c1 | -4% |
| O=C(NC1CC1)c1cc2c(=O)[nH]c(-c3ccccc3)cn2n1 | 29% |
| O=C([C@H]1C[C@H](Oc2ccccc2)CN1S(=O)(=O)Cc1ccccc1)N1CCOCC1 | -18% |
| COc1ccc(-c2cc(C[C@H]3CNCC[C@H]3CC(=O)N3CCN(C)CC3)no2)cc1 | -5%[70.6 µM] |

| Molecule | NPR1 antag |
| --- | --- |
| CC1(C(=O)NCc2ccc(Cl)cc2)CCCCC(=O)N1 (configuration not stated) | 12% |
| COc1ccc(C(=O)N2C[C@@H](CO)[C@H](N(C)C)C2)cc1 | 2% |
| Cn1ccnc1CN1CCCC(CCC(=O)Nc2ccccc2F)C1 (configuration not stated) | 4% |
| COC1CCC12CCN(C(=O)Nc1ccccc1)CC2 (configuration not stated) | -1% |
| COc1ccc(C(=O)NC2CCN(c3cnn(CC4CC4)c(=O)c3)CC2)c(OC)n1 | -20% |
| O=C(C1CC=CCC1)N1CC(c2noc(C3CCCN3CC3CC3)n2)C1 (configuration not stated) | 3% |
| CC1(c2ccccc2)N(Cc2ccccc2C#N)C(=O)OC12CCN(C(=O)c1cccc(O)c1)CC2 (configuration not stated) | -6% |
| COCCN1C(=O)[C@H]2CN(Cc3cccn3C)C[C@H]2C1=O | -1% |
| COc1cccc(C(=O)Nc2ccc3c(c2)CN(Cc2ccccc2F)C(=O)CO3)c1 | -2% |
| O=C(NC1CCCC1)C1CCCN(C2CCN(Cc3ccncc3)CC2)C1 (configuration not stated) | 13% |
| Cc1nn(-c2ccccc2)c(C)c1[C@@H]1C=C[C@@H](NCc2cccc(C#N)c2)C1 | -13%[70.6 µM] |
| COc1cccc(-c2cc(C(=O)NCCNc3nc(C)cc(=O)[nH]3)[nH]n2)c1 | 11% |
| CCn1ncc(N2CCCC(CC(=O)N3CCN(c4ccccn4)CC3)C2)cc1=O (configuration not stated) | 0% |
| O=C(c1ccc(-c2ncc3cnc(C4=CCOCC4)cn23)cc1)N1CCc2ccccc2C1 | -25%[70.6 µM] |
| CC(C)C(=O)N1CCCCCNC(=O)[C@H]2C[C@H](C(=O)N3CCc4ccccc4C3)C[C@H]21 | -6% |

| Molecule | NPR1 antag |
| --- | --- |
| COc1cc(CNC(=O)C2CCCCC(=O)N2)cc(OC)c1 (configuration not stated) | 5% |
| Cc1cc(F)ccc1-c1[nH]nc2ncc(-c3c(C)noc3C)nc12 | -23%[70.6 µM] |
| CNC(=O)CCn1ncc2cc(OC3CCc4cccc(-c5cccnc5OC)c43)ccc21 (configuration not stated) | -6% |
| CCC(=O)N1C[C@@H](Oc2ccccc2)C[C@H]1C(=O)N1CCOCC1 | 0% |
| CCOc1ccccc1CN1CCC2(CCN(Cc3cncs3)CC2)Oc2ccccc21 | 8% |
| NCCn1cc(C(=O)NCc2noc(Cc3ccccc3)n2)nn1 | 2% |
| Cc1ccc(-n2c(C3CCN(C(=O)Cc4ccc(Cl)cc4)CC3)n[nH]c2=O)cc1 | 0% |
| COc1ccc(NC(=O)N2Cc3[nH]cnc3C[C@H]2c2nc(-c3ccc(F)cc3)no2)cc1 | -30%[70.6 µM] |
| CN1c2cc(C(=O)Nc3ccc(Cl)c(C(F)(F)F)c3)ccc2C(=O)N2CCCC21 (configuration not stated) | -14% |
| Cc1cccc(NC(=O)Cn2c(-c3ccccc3)nc(C)cc2=O)c1 | -18% |

High-throughput results from PubChem.

These rows are one share of the data; the hit share may differ from the screen's.
